RE007 growth inh = less growth of the S. pombe RE007 Vpr strain. S. pombe RE007 Vpr strain, BacTiter-Glo ATP luminescence, 24 h; control for the full effect not named in the record. Potency, µM (doses to about 92.2 µM), for the others: top-dose activity change, negative = less growth. 0.21% of 360,000 active; active = well fitted falling curve with a large enough effect; inconclusive = small, poorly fitted or top-dose-only effect; inactive = no such curve, though single readings can be large or run the other way;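 note: nearly all actives have a fitted effect of over 50% in size; the assay follows cell death caused by Vpr and the record does not say whether a fall means rescue or toxicity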
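Fission yeast RE007 carrying one integrated HIV-1 vpr copy, seeded at OD 0.01 in PMG+AL medium with 23 nL pinned compound. Grown 24 h at 30 degrees; viability read by BacTiter-Glo luminescence after 5 min.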
2A StopGo = FMDV 2A StopGo reporter, luciferase signal; human cells with a luciferase reporter of 2A StopGo recoding; control for the full effect not named in the record; Potency, µM (highest dose often 57.9 µM), for the others: at the highest dose signal change, negative = less light; 1.2% of 410,000 active; AID 1159524; active = well fitted falling curve with a large enough effect; inconclusive = small, poorly fitted or top-dose-only effect; inactive = no such curve, though single readings can be large or run the other way; tested in HEK293T cells; note: nearly all actives have a fitted effect of over 45% in size; luciferase light after 4 h
The depositor's hits bear a star; u = inconclusive; [ ] = dose if it differs, or a comment. % is set by controls: 0 for no effect and ±100 for the full control effect; potency is the fitted concentration of half-maximal effect.

SMILES	RE007 growth inh	2A StopGo
COc1cc(/C=C(\C(=O)O)c2ccc(S(=O)(=O)N3CCCC3)s2)ccc1OCCC(C)C	5%	-7%
NC(=O)c1csc(CCNC(=O)c2ccccc2)n1	-21%	-3%
O=C(NNC(=O)c1csc(-c2ccccc2)n1)c1ccccc1	u	-6%
COc1ccc(C(C(=O)Nc2ccc(F)cc2)N2CCN(CC(=O)N3CCCC3)CC2)cc1 (stereo not drawn)	2%	8%
O=C(NCCNCCO)C1(C(F)(F)F)C/C(=C\Cc2ccccc2)CCCO1 (stereo not drawn)	2%	-20%
CC(=O)NCCNC(=O)C1Cc2c(-c3ccccc3Oc3ccccc3)ccnc2O1 (stereo not drawn)	7%	-2%
COc1ccc(C(C)(NC(C)=O)c2nc(-c3cccc(F)c3)cs2)cc1 (stereo not drawn)	3%	-17%
CCc1ccc([C@@H]2C[C@H]3[C@@H](CN2S(=O)(=O)c2ccc(C)cc2)C(=O)C[C@@H](c2cccc(Cl)c2)N3S(=O)(=O)c2ccc(C)cc2)cc1	1%	-28%
COc1ccc(C)cc1NC(=O)NC1CC(=O)N(c2ccc3c(c2)OCCO3)C1 (stereo not drawn)	-6%	-18%
COC(=O)C[C@H]1C=C[C@@H](NC(=O)c2ccncc2)[C@@H](CO)O1	0%	-11%
O=[N+]([O-])c1cccc(COc2ccc(CN3CCCCC3)cc2)c1	-29%	18%
CC1(C(=O)NS(=O)(=O)Cc2ccccc2C(F)(F)F)CCN1C(=O)c1ccco1 (stereo not drawn)	5%[18.4 µM]	-13%
Cn1ccc2c(-c3cccc(C=O)c3)cc3c(c21)C1CCC3O1 (stereo not drawn)	-9%	-15%
Cc1ccc(CN2CCC[C@]3(N[C@H](c4ccc(C(F)(F)F)cc4)[C@@H]4C(=O)N(Cc5ccccc5)C(=O)[C@@H]43)C2=O)cc1	-1%	u
COc1ccc(-c2noc([C@@H]3O[C@H](CO)[C@H](O)[C@H](O)[C@H]3O)n2)cc1OC	-8%[18.4 µM]	-2%
Cc1c(Br)cccc1NC(=O)C1(C)CCN1Cc1ccc(OC(C)C)cc1 (stereo not drawn)	6%	-14%
Cc1nc(CN2C(=O)C3(CCC3)ON=C2c2cccc(Cl)c2)cs1	10%[18.4 µM]	-15%
CCc1nc2c(OC)cccn2c1N(C)C(=O)c1ccccc1F	2%	-14%
COc1ccc(C(C)(NC(C)=O)c2nc(-c3ccc(F)c(Cl)c3)cs2)cc1 (stereo not drawn)	10%	-24%
Cc1cc(C)n2c(Nc3ccc4c(c3)OCCO4)c(-c3cc4ccccc4o3)nc2n1	-18%	u
O=C(/C=C/[C@H]1O[C@@H](n2ccc(=O)[nH]c2=O)[C@H](O)[C@@H]1O)NCCc1c[nH]c2ccccc12	-1%	-12%
O=C(Nc1ccc2c(c1)OCCO2)C1c2ccccc2OCC(=O)N1CCCN1CCOCC1 (stereo not drawn)	4%	-10%
O=C(NC1CCCCC1)c1ccc2ccccc2c1	-18%	76%[activator]
Cc1nc(N(C)C2CCCCC2)c2nnn(Cc3ccc(F)cc3)c2n1	3%	u
COc1ccc(NC(=O)COC(=O)c2ccc(S(=O)(=O)N3CC(C)CC(C)C3)cc2)cc1OC (stereo not drawn)	-7%	-15%
CCOc1ccccc1C(=O)NC(C(=O)OCC(=O)NNC(=O)c1cccs1)C(C)C (stereo not drawn)	-12%	-23%
O=c1cc2c(c(-c3ccccc3)n1Cc1ccccc1)[C@@H](CCO)NC2	-5%	-24%
Cc1ccc(-c2csc3ncnc(N4CCN(S(=O)(=O)c5ccc(C#N)cc5)CC4)c23)cc1	3%	u
CC1(Cc2ccc3c(c2)OCO3)C(=O)Nc2ccc(-c3cccc(C(F)(F)F)c3)cc21 (stereo not drawn)	-3%	-27%
[C-]#[N+][C@H](O[C@@H]1O[C@H](CO)[C@@H](O)[C@H](O)[C@H]1O)c1ccccc1	4%	-21%
CCc1ccccc1OCC(=O)Nc1nnc(C2CC2)s1	7%	0%
CN(C)C(CNC(=O)c1sc2ccccc2c1Cl)c1ccco1 (stereo not drawn)	-10%	25%
C[C@@H]1CN([C@@H](C)CO)C(=O)CCCn2nncc2CO[C@@H]1CN(C)C(=O)OCc1ccccc1	-1%	-23%
CC(C)Cc1ccc(-c2cc3nc(NCC4CC4)ccn3n2)cc1	-13%[18.4 µM]	11%
CC1=C(C(=O)N(C(C)C)C(C)C)CC(CC(=O)NCc2ccco2)C(=O)N1Cc1ccccc1 (stereo not drawn)	5%	-8%
Cc1ccccc1NC(=O)COC(=O)COc1ccc2ccc(=O)oc2c1	-4%	3%
COc1cc(C(=O)N2CCCC(c3cc(C(=O)NCc4ccccc4)no3)C2)cc(OC)c1C (stereo not drawn)	11%	-15%
COC(=O)c1ccc2nc(-c3ccc(C)cc3)c(CC3CCCCC3)n2c1	-25%	12%
COC(=O)c1ccc2nc(-c3ccccc3)c(Cc3ccccc3C(F)(F)F)n2c1	-3%	-16%
CCOC(=O)OC(C)OC(=O)[C@@H]1N2C(=O)[C@@H](NC(=O)[C@H](N)c3ccccc3)[C@H]2SC1(C)C (stereo partly drawn)	6%	-26%

Entries of single compounds, quoted from the list. Values in the order: RE007 growth inh, 2A StopGo
COC(=O)c1ccc2nc(-c3ccc(C)cc3)c(CC3CCCCC3)n2c1 as listed: -25%, 12%
CC(C)Cc1ccc(-c2cc3nc(NCC4CC4)ccn3n2)cc1 as listed: -13%[18.4 µM], 11%
CCOC(=O)OC(C)OC(=O)[C@@H]1N2C(=O)[C@@H](NC(=O)[C@H](N)c3ccccc3)[C@H]2SC1(C)C (stereo partly drawn) as listed: 6%, -26%
COC(=O)c1ccc2nc(-c3ccccc3)c(Cc3ccccc3C(F)(F)F)n2c1 as listed: -3%, -16%
CN(C)C(CNC(=O)c1sc2ccccc2c1Cl)c1ccco1 (stereo not drawn) as listed: -10%, 25%

The list continues.
SMILES	RE007 growth inh	2A StopGo
CNC(C)C(=O)NC(C(=O)NC(C(=O)Nc1cccc2ccccc12)C(C)C)C(C)C (stereo not drawn)	4%[18.4 µM]	2%
CCc1nc2c(OCCC3CCCCC3)cccn2c1N(C)C(=O)c1cccs1	-16%[18.4 µM]	28µM*
C[C@H](CO)N1C[C@H](C)[C@H](CN(C)Cc2cncnc2)Oc2ncc(C#CC3(O)CCCC3)cc2C1=O	-27%	-24%
Cc1ccc(S(=O)(=O)NC(=O)C2(C)CCN2C(=O)CC2CCCCC2)nc1 (stereo not drawn)	3%[18.4 µM]	0%
C[C@H](O)[C@@H]1C(=O)N2CCc3ccc(-c4ccccc4)cc3[C@@H]2C[C@@H]1N(C)C(=S)Nc1ccc(F)cc1	8%	-14%
CCN1C(=O)[C@H]2[C@@H](c3ccc(C(F)(F)F)cc3)N[C@]3(CCCN(Cc4ccc(Br)cc4)C3=O)[C@H]2C1=O	14%	u
CC1(c2nnnn2Cc2ccccc2)CCC(=O)N1c1ccc(N2CCOCC2)cc1 (stereo not drawn)	0%	9%
Cn1nc(NC(=O)C(F)(F)F)c2nccnc21	-16%	16%
Cc1ccc(C)c2c1CCC(=Cc1ccccc1[N+](=O)[O-])C2=O	-21%	-16%
Cc1ccc2nc(-c3ccc(Cl)cc3)c(Cc3ccccc3C(F)(F)F)n2c1	-1%	73%[activator]
CC(C)[C@@H]1Cc2[nH][nH]c(=O)c2[C@H](c2ccc(F)cc2)O1	2%	1%
CS(=O)(=O)Nc1ccc(-c2ccc3nccn3c2)cc1	-17%[18.4 µM]	-11%
CC(=O)Nc1ccc(NC(=S)NC(=O)c2ccc(-c3ccccc3)cc2)cc1	5%	-24%
CCOC(=O)c1ccccc1NC(=O)c1c(N)n(C)c(=O)[nH]c1=O	1%	-5%
Cc1ccc(NC(=O)CCNC(=O)N2CC(=O)Nc3ccccc32)cc1Cl	-2%	-15%
COC(=O)[C@@]12C[C@@H](CC(=O)NCCCCc3ccccc3)C(=O)N(Cc3ccccc3)C1=CCC(C)(C)C2	0%	-13%
CCOC1=C2CN(S(=O)(=O)c3ccccc3)[C@H](c3ccccc3)C[C@H]2n2c(=O)n(-c3ccccc3)c(=O)n2C1	-1%	-15%
Oc1ccc(C[C@H]2CNC(=S)N2C[C@H]2CCCN2C[C@H](Cc2ccccc2)N2C[C@H](Cc3ccccc3)N(CC3CCCCC3)C2=S)cc1	3%	-5%
Cn1c(NCc2ccccc2F)nc2cc(-c3cccc(Cl)c3)sc2c1=O	8%	-6%
CC1(C(=O)NS(=O)(=O)C2CC2)CCN(C(=O)c2cc3ccccc3s2)C1 (stereo not drawn)	5%	-10%

Among those listed so far, two have bromine.
SMILES	RE007 growth inh	2A StopGo
Cc1c(Br)cccc1NC(=O)C1(C)CCN1Cc1ccc(OC(C)C)cc1 (stereo not drawn)	6%	-14%
CCN1C(=O)[C@H]2[C@@H](c3ccc(C(F)(F)F)cc3)N[C@]3(CCCN(Cc4ccc(Br)cc4)C3=O)[C@H]2C1=O	14%	u

The results go on:
SMILES	RE007 growth inh	2A StopGo
O=C(Nc1nnc([C@@H]2C[C@H](O)[C@@H](CO)O2)s1)Nc1ccc(F)cc1F	22%	31%[activator]
C[C@@H]1CN([C@H](C)CO)C(=O)CCCn2nncc2CO[C@@H]1CN(C)C(=O)Nc1ccc(N2CCCCC2)cc1	-3%	0%
O=[N+]([O-])c1cc([N+](=O)[O-])c(Oc2cccc3ccccc23)cc1NN1CCCCC1	12%	-22%
CCc1nc2c(OCc3ccc(C#N)cc3)cccn2c1N(C)C(=O)c1cccs1	-4%	-10%
CCCCCCN1C[C@@H](n2cc(-c3ccc(F)cc3)nn2)[C@H](O)C[C@@H]1c1ccc(Cl)cc1	-2%	u
COc1ccc(Cl)cc1Nc1cc(C)nc2ncnn12	10%	-9%
Cc1ccc(S(=O)(=O)N2Cc3ccccc3-n3nncc3C2)cc1	10%	u
CCCOc1ccc(F)cc1-c1cc(C(=O)Nc2cc(OC)ccc2OC)[nH]n1	3%	-12%
CN(C)CC(=O)N[C@@H]1CC[C@@H](CCNS(=O)(=O)c2ccccc2)O[C@@H]1CO	-2%	3%
CCCC(=O)N1CCC1(C)C(=O)Nc1ccc(-n2cccc2)cc1 (stereo not drawn)	4%	-14%

Compounds above containing a nitro group on carbon (3):
SMILES	RE007 growth inh	2A StopGo
O=[N+]([O-])c1cccc(COc2ccc(CN3CCCCC3)cc2)c1	-29%	18%
Cc1ccc(C)c2c1CCC(=Cc1ccccc1[N+](=O)[O-])C2=O	-21%	-16%
O=[N+]([O-])c1cc([N+](=O)[O-])c(Oc2cccc3ccccc23)cc1NN1CCCCC1	12%	-22%

Next part:
SMILES	RE007 growth inh	2A StopGo
CCOC(=O)[C@@H](NC(=O)/C=C/[C@H]1O[C@@H](n2cc(C)c(=O)[nH]c2=O)C[C@@H]1O)C(C)C	2%	-14%
O=C1NC[C@H](CCCCN2C[C@H](Cc3ccccc3)N(CC3CCCCC3)C(=O)C2=O)N(CCc2ccc(O)cc2)C1=O	-1%	-15%
O=C(NC1CCCC1)C(c1ccco1)N1CCN(c2c(Cl)cncc2Cl)CC1 (stereo not drawn)	u	-11%
O=C(COC(=O)c1ccc(S(=O)(=O)N2CCCCCC2)cc1)Nc1ccccc1C(F)(F)F	20%	-9%
COC(=O)[C@@]12C[C@@H](CC(=O)NCCc3ccccc3OC)C(=O)N(Cc3ccccc3)C1=CCC(C)(C)C2	2%	-26%
CS(=O)(=O)N1Cc2ccccc2-n2nncc2C1	0%	-12%
COc1cccc(-c2cc3nc(Nc4ccc(OC)c(OC)c4)n(C)c(=O)c3s2)c1	10%	15%
COc1ccccc1Cc1c(-c2ccc(C)cc2)nc2cc(C)c(Br)c(C)n12	4%	14%
O=C(NCc1nnnn1-c1ccc(Cl)cc1)c1ccc2c(c1)OCO2	0%	-12%
O=C(NCCS(=O)(=O)N1CCN(c2ccccc2)CC1)C1CCCCC1	4%	-9%
CC(=O)c1cccc(-c2cnc3c(NC=O)cc(-c4ccccc4F)cn23)c1	8%[18.4 µM]	-17%
CCC/C=C/c1ccc(CN2C(C)C(=O)N(Cc3cn(CCC4OCCO4)nn3)CCS2(=O)=O)cc1 (stereo not drawn)	-16%	-25%
CN1CCCC1CCNc1ccc2sc3ccccc3c(=O)c2c1 (stereo not drawn)	-25%	-1%
COc1cccc(CNC(=S)Nc2ccc3c(c2)c(=O)n(C)n3C)c1	8%	5%
O=C(NC1CCCCC1)N(c1ccccc1)c1nnc(-c2cccc([N+](=O)[O-])c2)s1	-6%	46%[activator]
O=S(=O)(NCC1CCCO1)c1ccc(Cl)c2ccccc12 (stereo not drawn)	-18%	83%[activator]
COc1ccc(C(C(=O)NCc2ccccc2)n2c(-c3ccccn3)nc3ccccc32)cc1 (stereo not drawn)	-13%	-12%
N#Cc1cccc(NC(=O)c2cc(C3CCCCN3C(=O)c3ccccc3)on2)c1 (stereo not drawn)	-13%[18.4 µM]	-21%
CCOC(=O)C1=CCN(S(=O)(=O)c2ccccc2Cl)C1c1ccccc1 (stereo not drawn)	2%	u
O=[N+]([O-])c1ccc(-c2cn3c(n2)SCC3)cc1	-9%	0%
CCCCNC(=O)C1C(c2ccccc2)=Nc2ccccc2N1C(=O)c1ccc(C)cc1 (stereo not drawn)	0%	16%

Retrieved by structure from the entries so far:
SMILES	RE007 growth inh	2A StopGo
CCC/C=C/c1ccc(CN2C(C)C(=O)N(Cc3cn(CCC4OCCO4)nn3)CCS2(=O)=O)cc1 (stereo not drawn)	-16%	-25%
COc1cccc(CNC(=S)Nc2ccc3c(c2)c(=O)n(C)n3C)c1	8%	5%

Bioassay records as filed in PubChem BioAssay.

Only part of the results is shown (hit frequency here may not be typical).
